Screening data deposited in PubChem BioAssay by National Center for Advancing Translational Sciences (NCATS).
VACV mCherry inh: inhibitors of vaccinia virus infection (mCherry reporter signal). Potency, µM (top dose mostly 36.5 µM), for inactives: top-dose activity change, negative = inhibition, hits mostly inhibitors. Vaccinia virus mCherry reporter infection, fluorescence; about a quarter of the inactives have no number. hit rate 0.63% among 310,000; active = well fitted inhibition curve with a large enough effect; inconclusive = small, poorly fitted or top-dose-only effect; inactive = no such curve, though single readings can be large or run the other way; tested in A549 cells; note: nearly all actives have a fitted effect of over 35% in size; inactives centre near -10
VACV Venus inh: vaccinia inhibition (Venus reporter); hit rate 0.46% among 330,000; Potency, µM (doses to about 36.5 µM), inactives show at the top dose activity change, negative = inhibition, most hits filed as inhibitors; AID 720580; Vaccinia virus Venus reporter expression, fluorescence; active means well fitted inhibition curve with a large enough effect; inconclusive means small, poorly fitted or top-dose-only effect; inactive means no such curve, though single readings can be large or run the other way; tested in A549 cells; note: nearly all actives have a fitted effect of over 30% in size; inactives centre near -10
Numbers without * were called inactive; & = joins results of further samples; [ ] = dose if it differs, or a comment. % is set by controls: 0 for no effect and ±100 for the full control effect; potency is the fitted concentration of half-maximal effect.

COc1c2ccoc2nc2c(OC)c(OCC(OC(C)=O)C(C)(C)O)ccc12 (stereo not drawn) was read as VACV mCherry inh 7.9% and VACV Venus inh 0.3%.
For Cn1cnnc1SCC(=O)N1CCN(C(=O)c2ccco2)CC1 the results were VACV mCherry inh inactive and VACV Venus inh 2.3%.
For Nc1cc(N2CCCC2)c(Cl)cc1[N+](=O)[O-] the results were VACV mCherry inh -0.8% and VACV Venus inh -19.1%.
CC(C)NCC(O)COc1ccc(CCOCC2CC2)cc1 (stereo not drawn) was read as VACV mCherry inh -21.6% and VACV Venus inh -16.3%.
O=C(c1cnc(Cl)c(Cl)c1)N1CCN(S(=O)(=O)c2cccs2)CC1 was read as VACV mCherry inh inactive and VACV Venus inh -10.5%.
For CCC(NC(=O)c1[nH]c(C)c(C(C)=O)c1C)c1ccc(Br)cc1 (stereo not drawn) the results were VACV mCherry inh inactive and VACV Venus inh -10.6%.
O=C(NC1CCCCC1)c1[nH]c(C(F)(F)F)nc1-c1ccccc1 was read as VACV mCherry inh 19.3% and VACV Venus inh 8.4%.
`CC(=O)c1cccc(N(CC(=O)Nc2ccccc2F)S(C)(=O)=O)c1` gave VACV mCherry inh -2.0% and VACV Venus inh -13.1%.
CC1=CC(Cc2ccccc2)N(C)C(C(N)=O)C1 (stereo not drawn) was read as VACV mCherry inh -8.1% and VACV Venus inh 1.1%.
`N/C(COc1cc(Cl)cc(Cl)c1)=N\O` gave VACV mCherry inh -9.0% and VACV Venus inh -7.3%.
`CCC(=O)OCCNc1cc(Sc2nc3ccccc3[nH]2)c2nonc2c1[N+](=O)[O-]` gave VACV mCherry inh -8.0% and VACV Venus inh inconclusive.
For Cc1ccc(S(=O)(=O)CCC(=O)OCC(=O)NCc2ccc(Cl)cc2)cc1 the results were VACV mCherry inh inactive and VACV Venus inh -11.9%.
Cc1c(C(=O)Nc2c(F)cccc2F)sc2ncnc(N3CCN(c4ccccc4)CC3)c12 was read as VACV mCherry inh -21.7% and VACV Venus inh -20.2%.
COc1ccc(/C=C/C(=O)OCC(=O)NC2CCCCCC2)cc1OC was read as VACV mCherry inh inactive and VACV Venus inh -13.0%.
For COc1ccc2[nH]c(CCc3nc4c(OC)c(OC)ccc4[nH]3)nc2c1OC the results were VACV mCherry inh -11.5% and VACV Venus inh -10.6%.
For O=C(C=Cc1ccco1)c1ccco1 the results were VACV mCherry inh -9.9% and VACV Venus inh 0.6%.
For N#CCCN(C(=O)COC(=O)CCc1ccccc1)c1ccccc1 the results were VACV mCherry inh -1.7% and VACV Venus inh -18.0%.
For CN(C)c1cc[n+](CC(O)C[n+]2ccc(N(C)C)cc2)cc1 the results were VACV mCherry inh -11.3% and VACV Venus inh -2.1%.
Screening COc1ccc(C(=O)Nc2ccc(CN3CCCCC3)cc2)cc1 returned VACV mCherry inh inactive and VACV Venus inh -12.6%.
For Cc1cccc(CCNC(=O)c2cc3c(s2)-c2c(C)cccc2OC3)c1 the results were VACV mCherry inh -25.0% and VACV Venus inh -28.2%.
Screening Cc1cc(C)cc(OCC(=O)NCC2(N3CCOCC3)CCCCC2)c1 returned VACV mCherry inh -18.9% and VACV Venus inh -13.5%.
`O=C(Cn1ncc2c(=O)oc3ccccc3c21)NCc1ccccc1Cl` gave VACV mCherry inh 2.5% and VACV Venus inh 0.3%.
COc1ccc(C2(c3ccc(OC)cc3)NC(=O)N(CC(=O)Nc3ccccc3C(F)(F)F)C2=O)cc1 was read as VACV mCherry inh -12.9% and VACV Venus inh -23.2%.
`COCCCNC(=O)N1c2ccccc2Sc2ccccc21` gave VACV mCherry inh -13.1% and VACV Venus inh -18.4%.
O=C(O)c1ccccc1C(=O)NC1Cc2ccccc2C1 was read as VACV mCherry inh 2.1% and VACV Venus inh 14.2%.
O=C(c1ccc(NC2=NC3CS(=O)(=O)CC3S2)cc1)N1CCN(Cc2ccccc2)CC1 (stereo not drawn) was read as VACV mCherry inh -12.3% and VACV Venus inh -11.2%.
`O=C(CN1CCCC1)Nc1ccc(OCc2ccccc2)cc1` gave VACV mCherry inh inconclusive and VACV Venus inh inconclusive.
CS(=O)(=O)N(CC(=O)Nc1ccc2c(c1)OCO2)c1ccccc1 was read as VACV mCherry inh -0.3% and VACV Venus inh -4.1%.
OC(CNC1Cc2ccccc2C1)COc1ccc(F)cc1 (stereo not drawn) was read as VACV mCherry inh inactive and VACV Venus inh -28.9%.
Screening O=C(O)c1ccccc1C(=O)Nc1ccc(Oc2cccc(C(F)(F)F)c2)nc1 returned VACV mCherry inh -0.2% and VACV Venus inh -14.6%.
`O=C(CCn1c(=O)oc2ccccc21)N(Cc1ccccc1)c1ccccc1` gave VACV mCherry inh -6.9% and VACV Venus inh -14.5%.
CC(=O)c1ccccc1Oc1cc(NN2CCCCC2)c([N+](=O)[O-])cc1[N+](=O)[O-] was read as VACV mCherry inh inconclusive and VACV Venus inh inconclusive.
For Cc1cc(S(=O)(=O)Nc2ccc(C(=O)NCC(c3ccco3)N(C)C)cc2)ccc1F (stereo not drawn) the results were VACV mCherry inh inactive and VACV Venus inh -15.9%.
For Cc1ccc(CO/N=C/c2c(O)cc(C)oc2=O)cc1 the results were VACV mCherry inh inactive and VACV Venus inh -1.2%.
O=C(Nc1ccccn1)c1cc(-c2cccnc2)nc2ccc(Br)cc12 was read as VACV mCherry inh -0.8% and VACV Venus inh -23.4%.
Screening CCCN1Cc2cccc(C(=O)NC(CC(=O)OCC)c3ccc(OCC)c(OC)c3)c2C1=O (stereo not drawn) returned VACV mCherry inh -10.2% and VACV Venus inh -22.1%.
For COc1ccc(-c2cc(NCCc3ccncc3)n3ncnc3n2)cc1 the results were VACV mCherry inh -6.8% and VACV Venus inh 9.7%.
For Cc1ccc(NC(=S)N(CCN2CCOCC2)Cc2ccccc2F)cc1Cl the results were VACV mCherry inh -5.5% and VACV Venus inh -10.1%.
`COc1ccc(OCCSc2nnc(-c3ccoc3C)n2C)cc1` gave VACV Venus inh -17.2%.
Cc1nc([N+](=O)[O-])c(NCCCO)n1Cc1ccccc1 was read as VACV mCherry inh inactive and VACV Venus inh 6.1%.
For O=C(CN1C(=O)S/C(=C\C=C\c2ccccc2)C1=O)N1CCOCC1 the results were VACV mCherry inh inactive[7.34 µM] and VACV Venus inh 0.6%[7.34 µM].
For O=C(NC(Cc1ccccc1)C(=O)O)/C(=C/c1ccc(Cl)cc1)NC(=O)c1ccco1 (stereo not drawn) the results were VACV mCherry inh inactive and VACV Venus inh -2.8%.
For COCCNC(=O)/C(C#N)=C/c1c(N2CCN(c3ccccc3)CC2)nc2c(C)cccn2c1=O the results were VACV mCherry inh -4.9% and VACV Venus inh -0.9%.
Screening NNC(=S)Nc1ccc(Cl)cc1 returned VACV mCherry inh inactive and VACV Venus inh -16.0%.
For N#CCCn1c(Cl)nc2ccccc21 the results were VACV mCherry inh -13.7% and VACV Venus inh -9.6%.

A stretch of the results above, as a working copy:
For O=C(NC(Cc1ccccc1)C(=O)O)/C(=C/c1ccc(Cl)cc1)NC(=O)c1ccco1 (stereo not drawn) the results were VACV mCherry inh inactive and VACV Venus inh -2.8%.
For COCCNC(=O)/C(C#N)=C/c1c(N2CCN(c3ccccc3)CC2)nc2c(C)cccn2c1=O the results were VACV mCherry inh -4.9% and VACV Venus inh -0.9%.
Screening NNC(=S)Nc1ccc(Cl)cc1 returned VACV mCherry inh inactive and VACV Venus inh -16.0%.
For N#CCCn1c(Cl)nc2ccccc21 the results were VACV mCherry inh -13.7% and VACV Venus inh -9.6%.

(list continues)
CCC(=O)N(C)C[C@@H]1Oc2ncc(Br)cc2C(=O)N([C@@H](C)CO)C[C@H]1C was read as VACV mCherry inh inactive and VACV Venus inh -8.3%.
CCc1cc(CNC(=O)C2CCC(=O)N(Cc3ccc(Cl)cc3)C2)on1 (stereo not drawn) was read as VACV mCherry inh -8.4%[7.34 µM] and VACV Venus inh 0.0%[7.34 µM].
COc1ccccc1-n1c(CNC(=O)c2ccco2)nnc1SCC(=O)Nc1nccs1 was read as VACV mCherry inh inactive and VACV Venus inh -19.6%.
Cc1ccnc(NS(=O)(=O)c2ccc(N)cc2)n1 was read as VACV mCherry inh -0.4%&-6.3% and VACV Venus inh -8.3%&-4.8%.
For CSc1ncc(C(=O)Nc2c(C)cccc2C)c(-c2ccccc2)n1 the results were VACV mCherry inh -8.8% and VACV Venus inh -9.0%.
For CC(=O)Nc1ccc(N2CCC(C)CC2)c([N+](=O)[O-])c1 the results were VACV mCherry inh -26.0% and VACV Venus inh -18.4%.
Screening COc1ccc(CC(N)c2csc(NC(=O)Nc3ccccc3C(C)C)n2)cc1 (stereo not drawn) returned VACV mCherry inh -26.1% and VACV Venus inh inconclusive.
Screening Cn1ccc2c(-c3ccc4[nH]ccc4c3)cc3c(c21)C1CCC3O1 (stereo not drawn) returned VACV mCherry inh inactive and VACV Venus inh 10.6%.
`COC(=O)C1=C(c2ccc(F)cc2F)C[C@@H]2CC[C@H]1N2C(=O)NCc1ccc(C(F)(F)F)cc1` gave VACV mCherry inh -5.3% and VACV Venus inh -22.8%.
Screening COc1ccc2[nH]c(-c3ccc(C)cc3)cc(=O)c2c1 returned VACV mCherry inh -3.1% and VACV Venus inh inconclusive.
Screening C[C@]1(C(=O)NCCc2c[nH]c3ccccc23)C=C[C@@H](Cc2ccccc2)N1C(=O)c1ccccc1 returned VACV mCherry inh -4.4% and VACV Venus inh -14.8%.
Screening CCN(Cc1ccccc1)C(=O)CCc1nnc(CCCc2ccccc2)o1 returned VACV mCherry inh -11.4% and VACV Venus inh -13.1%.
`O=C(CSc1ccc(C(F)(F)F)cn1)Nc1ccccc1` gave VACV mCherry inh -19.9% and VACV Venus inh -14.0%.
`COc1cccc(Oc2ccc(S(=O)(=O)N3CCOCC3)cc2[N+](=O)[O-])c1` gave VACV mCherry inh -25.6% and VACV Venus inh -11.9%.
Screening Cc1ccccc1C(O)(Cc1ccccc1)C1CN2CCC1CC2 (stereo not drawn) returned VACV mCherry inh inconclusive and VACV Venus inh -29.3%.
`NC(=O)CC[C@H](NC(=O)OCc1ccccc1)C(=O)OCc1ccc(Cl)cc1` gave VACV mCherry inh -13.1% and VACV Venus inh -14.7%.
Screening COc1ccc(N(C)C(=O)c2ccc3c(Cl)c4c(nc3c2)CCCC4)c(OC)c1 returned VACV mCherry inh 11.4%[7.34 µM] and VACV Venus inh 22.8%[7.34 µM].
O=C(Nc1ccccc1N1CCOCC1)C1=COCCO1 was read as VACV mCherry inh -15.0% and VACV Venus inh -7.0%.
For CCCN1C2=NCCCN2c2ccccc21 the results were VACV mCherry inh inactive and VACV Venus inh -6.9%.
CN=c1scc(-c2ccccc2F)n1/N=C(\C)c1cccnc1 was read as VACV mCherry inh inconclusive and VACV Venus inh -20.1%.
`O=C(OCC(=O)N1CCN(C(=O)c2ccco2)CC1)c1c(Cl)cccc1Cl` gave VACV mCherry inh -19.0% and VACV Venus inh -20.9%.
For CCOC(=O)CNC(=O)c1ccc(C)cc1 the results were VACV Venus inh -10.1%.
`COc1ccc(Cl)cc1NC(=O)c1c(NCc2ccc(C)o2)sc2c1CCCC2` gave VACV mCherry inh 0.3% and VACV Venus inh 6.2%.
For Cc1cc(C)c(NC(=O)CCCSc2nnc(N)s2)c(C)c1 the results were VACV mCherry inh -10.4% and VACV Venus inh -15.1%.
CCCCN(C)CCNC(=O)CCn1nc(-c2ccc(C)cc2)ccc1=O was read as VACV mCherry inh inactive and VACV Venus inh -16.4%.
Screening CC(C)c1ccc(C2/C(=C(\O)c3ccc4c(c3)OCCO4)C(=O)C(=O)N2CCN2CCOCC2)cc1 (stereo not drawn) returned VACV mCherry inh inactive[7.34 µM] and VACV Venus inh -16.1%[7.34 µM].
`C[C@H]1COc2cccc(N(C)CCO)c2S(=O)(=O)N1` gave VACV mCherry inh inactive and VACV Venus inh -16.0%.
Screening Cc1ccc(OCC(=O)NC2CCSc3ccccc32)cc1 (stereo not drawn) returned VACV mCherry inh inactive and VACV Venus inh -16.8%.
Cc1cccc(NC(=O)c2oc3ccccc3c2NC(=O)c2cc(=O)c3ccc(C)cc3o2)c1 was read as VACV mCherry inh -3.2% and VACV Venus inh -8.6%.
`CCC(C(=O)OCC(=O)Nc1c(Cl)cc(Cl)cc1Cl)c1ccccc1` (stereo not drawn) gave VACV mCherry inh -14.7% and VACV Venus inh -2.2%.

A draw from above in order of length of the SMILES, descending:
CCCCN(C)CCNC(=O)CCn1nc(-c2ccc(C)cc2)ccc1=O was read as VACV mCherry inh inactive and VACV Venus inh -16.4%.
For Cc1cc(C)c(NC(=O)CCCSc2nnc(N)s2)c(C)c1 the results were VACV mCherry inh -10.4% and VACV Venus inh -15.1%.
O=C(Nc1ccccc1N1CCOCC1)C1=COCCO1 was read as VACV mCherry inh -15.0% and VACV Venus inh -7.0%.

Remaining list, next part.
For COc1ccc2c(c1)OCC(Cc1ccc(OC)c(OC)c1)C2=O (stereo not drawn) the results were VACV mCherry inh -6.9% and VACV Venus inh inconclusive.
C[C@H]1CN=C(Nc2ccccc2)N1CC1CCCCC1 was read as VACV mCherry inh -12.6% and VACV Venus inh 0.9%.
Cc1ccc(/C=C2\Oc3c(ccc(O)c3CN3CCN(C)CC3)C2=O)cc1 was read as VACV mCherry inh -1.0% and VACV Venus inh -4.7%.
Screening Clc1ccc(CN2CCC(c3ccccc3)CC2)cc1 returned VACV mCherry inh -7.8% and VACV Venus inh -17.4%.
For Cc1cc(C)c2nc(-n3nc(C)cc3N)cc(C)c2c1 the results were VACV mCherry inh -16.2% and VACV Venus inh -9.9%.
Screening CCCN(Cc1nnc(-c2cccs2)o1)C(=O)c1cccc(S(=O)(=O)N2CCOCC2)c1 returned VACV mCherry inh inactive and VACV Venus inh -8.3%.
